Arbovirus inh = antivirals against arbovirus infection; inhibition, % at 10 µM; 200,000 tested, 0.37% active; arbovirus infection cell-based antiviral screen;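 active means inhibition from about 30%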;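 further: bluetongue infection of BSR cells; cell survival read as ATP light after 72 h; 0% = infected wells without compound and 100% = uninfected wells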
YopH inh = inhibitors of Yersinia enterocolitica YopH tyrosine phosphatase | fluorescence Ex485/Em525 | 140,000 tested, 0.16% active | inhibition, %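 (about 10 µM by stock and volumes)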;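 active means inhibition of 50% or more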;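 further: controls were vehicle for no effect and minimum signal wells for full effect; inactives centre near -20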
RecA splice inh = blocks M. tuberculosis RecA intein splicing; P9WHJ3; 290,000 tested, 0.75% active; AID 2221; inhibition, %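 (about 9 µM by stock and volumes)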; cell-free RecA intein splicing, fluorescence; in the data active means inhibition above about 30%; inconclusive means no clear call, values can overlap the other calls;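 further: 0% = vehicle wells and 100% = reference inhibitor control wells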
Target sequence (P9WHJ3 whole entry, looked up, canonical isoform): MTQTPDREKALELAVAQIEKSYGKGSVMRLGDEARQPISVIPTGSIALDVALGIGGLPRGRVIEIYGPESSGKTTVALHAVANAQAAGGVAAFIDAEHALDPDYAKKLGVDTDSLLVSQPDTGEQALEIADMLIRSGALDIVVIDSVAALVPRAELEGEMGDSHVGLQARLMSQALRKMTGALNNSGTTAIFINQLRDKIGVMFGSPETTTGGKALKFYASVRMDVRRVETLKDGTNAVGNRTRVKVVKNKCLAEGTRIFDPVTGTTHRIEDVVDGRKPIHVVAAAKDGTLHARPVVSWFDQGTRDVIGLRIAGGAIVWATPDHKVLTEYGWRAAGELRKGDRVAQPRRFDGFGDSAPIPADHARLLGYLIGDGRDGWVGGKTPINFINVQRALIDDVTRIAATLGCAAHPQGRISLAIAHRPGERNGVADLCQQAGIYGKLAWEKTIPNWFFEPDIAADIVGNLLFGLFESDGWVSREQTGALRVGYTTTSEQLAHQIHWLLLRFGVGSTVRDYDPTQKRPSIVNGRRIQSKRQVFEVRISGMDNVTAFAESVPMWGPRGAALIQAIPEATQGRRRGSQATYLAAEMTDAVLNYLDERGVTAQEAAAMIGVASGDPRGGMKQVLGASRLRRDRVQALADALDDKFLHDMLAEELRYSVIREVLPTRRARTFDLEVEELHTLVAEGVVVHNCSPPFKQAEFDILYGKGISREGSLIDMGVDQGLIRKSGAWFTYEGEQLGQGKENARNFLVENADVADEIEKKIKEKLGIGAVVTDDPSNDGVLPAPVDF
Mtb H37Rv = M. tuberculosis H37Rv growth inhibitors, H37Rv strain (AID 1626). 220,000 tested, 0.95% active. inhibition, % at 10 µM; hits with a dose series show IC50 in µM. M. tuberculosis H37Rv growth inhibition; higher % means a stronger effect;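 active means confirmed in a dose series; inconclusive means inhibition above 80% but not taken into the dose series; inactive means below 80% or under 30% at every dose of the series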;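 further: bacteria incubated seven days before Alamar blue readout; 0% = bacteria only wells and 100% = bacteria with antibiotic wells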
Mtb bLac sens = beta-lactam sensitization of Mtb H37Rv; M. tuberculosis H37Rv growth with meropenem, percent inhibition; hits of this screen are not shown here; inhibition, % at 25 µM; 330,000 tested, 0.27% active; AID 434955;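 active means about 74% or more and at least 40 points above the plate without the antibiotic, then above 30% in a dose series; inconclusive means first-round hits that could not be retested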;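 further: growth measured after seven days incubation then overnight dye step; 0% = bacteria only wells and 100% = bacteria with antibiotic; twin plates without the antibiotic show which effects depend on it; some results filed as inactive read as strong as hits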
Arbovirus inh repeat = also measured in Arbovirus inh; calls as there; inhibition, %; measured here: 10K subset replicate screen; many hits read low in the repeat;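 first of two repeat runs on a subset; 0% = infected and 100% = uninfected wells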
Starred values were filed as active, the others as inactive; ? = inconclusive; . = not tested or not shown. The list is partial, so the mix of outcomes need not match the whole.

SMILES | Arbovirus inh | YopH inh | RecA splice inh | Mtb H37Rv | Mtb bLac sens | others
Cn1c2ccccc2c2cc(/C=C(\NC(=O)c3ccccc3)C(=O)O)ccc21 | . | . | 0.0 | 3% | -5
COC(=O)C1=C(C)N(Cc2ccccc2)C(=NCC(C)C)N[C@H]1c1ccccc1 | . | . | 2.0 | . | 84
O=C(NCc1ccccc1)/C(=C\c1ccc([N+](=O)[O-])cc1)NC(=O)c1ccco1 | . | . | -1.1 | . | -6
Cc1c(Cl)ccc(S(=O)(=O)NCCN2CCOCC2)c1Cl | . | . | -2.2 | . | -8
O=C(CN1CCCCCC1)Nc1ccccc1Cl | . | . | -0.8 | . | -1
COc1cc(-c2n[nH]c(=S)n2-c2cc(C(F)(F)F)ccc2Cl)cc(OC)c1OC | -7 | -9 | -2.8 | 4% | 3
O=C(COC(=O)Cc1ccc(-c2ccccc2)cc1)NCc1ccc(F)cc1 | -4 | -18 | -1.3 | 14% | 13
OC1CCN(c2ncnc3c2nnn3Cc2c(F)cccc2Cl)CC1 | 0 | -52 | 0.4 | . | -2
Clc1cccc(-c2nnc(SC/C=C/c3ccccc3)n2Cc2ccco2)c1 | -26 | -12 | 19 | 12% | 24
CCc1nn(CC(=O)O)c(=O)c2ccccc12 | -5 | -32 | 6.0 | -9% | -2

Structural class: those above containing fluorine.
SMILES | Arbovirus inh | YopH inh | RecA splice inh | Mtb H37Rv | Mtb bLac sens | others
COc1cc(-c2n[nH]c(=S)n2-c2cc(C(F)(F)F)ccc2Cl)cc(OC)c1OC | -7 | -9 | -2.8 | 4% | 3
O=C(COC(=O)Cc1ccc(-c2ccccc2)cc1)NCc1ccc(F)cc1 | -4 | -18 | -1.3 | 14% | 13
OC1CCN(c2ncnc3c2nnn3Cc2c(F)cccc2Cl)CC1 | 0 | -52 | 0.4 | . | -2

Next entries.
SMILES | Arbovirus inh | YopH inh | RecA splice inh | Mtb H37Rv | Mtb bLac sens | others
N=c1oc2ccc(Cl)cc2cc1C(=O)NC1CCCCCC1 | . | . | 0.1 | . | 0
O=S(=O)(c1ccc(N2CCOCC2)cc1)N1CCOCC1 | 4 | -23 | 5.0 | 0% | -1
O=C(CN1CCCCC1)NCC(=O)Nc1ccc(Br)cc1C(=O)c1ccccc1 | 1 | -9 | . | -13% | -2
N#CC(C#N)=C1CCc2ccccc2N1 | -4 | -7 | 1.8 | -9% | -5
c1ccc(-c2nnc3sc(-c4csc5c4CCCC5)nn23)cc1 | -45 | -38 | 3.7 | 27% | 83
COc1ccccc1C(=O)NC(=O)Nc1nc(-c2ccccc2)cc(C(F)(F)F)n1 | . | . | -1.9 | 0% | -11
CC(=O)c1ccc(N(CC(=O)NC2CCCCC2)C(=O)CNC(=O)c2cccs2)cc1 | . | . | -4.3 | . | -10
O=C1CC(c2ccccc2)CC(O)=C1C=NCCCO (stereo not drawn) | 11 | -38 | 0.2 | 2% | -13
CCCc1cc(=O)oc2cc(OCC(=O)NCC(O)c3ccccc3)ccc12 (stereo not drawn) | . | . | -0.2 | . | -11
COc1ccc(-c2cc3nc(-c4ccccc4)cc(N4CCC(O)CC4)n3n2)cc1 | -13 | . | -1.6 | 4% | 3
CCOc1ccc(S(=O)(=O)N2CCC(C(=O)NCc3ccco3)CC2)cc1C | . | . | 0.4 | . | -13
Cc1ccc(CNS(=O)(=O)c2ccc(Br)s2)cc1 | . | . | 6.1 | . | 11
COc1cc(C2Nc3ccc4ncccc4c3C3=C2C(=O)CCC3)ccc1O (stereo not drawn) | -3 | -26 | -0.4 | 2% | -7
Cc1cccc(NC(=O)CC2C(=O)NC3CCCCC3N2C(=O)c2ccccc2Cl)c1 (stereo not drawn) | . | . | 0.2 | -5% | -4
O=C(NCCNC(=O)c1cccs1)c1ccco1 | 9 | 3 | -5.2 | -4% | 8
CCCn1c(=O)c2ccccc2n2c(SCC(=O)c3ccccc3)nnc12 | 5 | -34 | -3.0 | 1% | 1
Cc1c(NC(=O)CSc2nnc3sc4ccccc4n23)c(=O)n(-c2ccccc2)n1C | 0 | 13 | -0.1 | -4% | 2
Cc1nnsc1C(=O)NC(C)c1ccccc1 (stereo not drawn) | 18 | . | 4.7 | -1% | -9
CC(=O)c1cc(F)c(N2CCCCCC2)cc1C | -3 | -7 | -1.7 | 5% | 6
O=C(CSc1nncn1-c1ccccc1)NC1CCCC1 | . | . | -0.4 | . | -17
CCOc1ccccc1N1CCN(S(=O)(=O)CC)CC1 | 1 | -24 | 0.8 | -9% | 4 | Arbovirus inh repeat=2
CC1CCCCN1CCNC(=O)C1CCCN(S(=O)(=O)c2cccc3nsnc23)C1 (stereo not drawn) | . | . | -7.2 | . | -3
Cc1nc(SCC(=O)Nc2c(C)n(C)n(-c3ccccc3)c2=O)[nH]c(=O)c1C | . | -35 | -0.8 | 1% | 6
COc1ccccc1C(=O)N/C(=C/c1cccc([N+](=O)[O-])c1)C(=O)Nc1cccc(C(=O)O)c1 | 1 | . | -2.1 | -3% | -10
CS(=O)(=O)c1cccc(C(=O)NC(c2ccccc2)c2ccccc2)c1 | 14 | -14 | 1.2 | -10% | 2
O=C1NC(=O)C(c2ccccc2[N+](=O)[O-])=C1Nc1ccc(O)c(Cl)c1 | . | . | 0.0 | . | -3
NC(=O)N/N=C/c1coc2ccc3ccccc3c2c1=O | . | . | 0.3 | -10% | 1
COCCn1c(SCC(=O)N2CCCC2)nnc1C(C)C | 2 | -16 | -1.9 | -12% | -6
O=[N+]([O-])c1cc(CN2CCCC2)ccc1Sc1ccc(Cl)cc1 | 6 | . | -1.2 | 30µM* | -1
CS(=O)(=O)N1CCN(C(=O)c2cc(-c3cccnc3)nc3ccc(Cl)cc23)CC1 | -1 | . | -0.4 | 1% | -8
Cn1c(=O)n(C)c(=O)n(CC(=O)N2CCCCC2)c1=O | -1 | -53 | 1.7 | -10% | 2
COc1ccc(-n2cnc3cc(NCc4ccccn4)ccc32)cc1 | -8 | -6 | 3.2 | 5% | 84
Cc1ccc2cc(C#N)c(N3CCCN(C(=O)C4CCCO4)CC3)nc2c1 (stereo not drawn) | 6 | -34 | -41 | -5% | 10
CC(OC(=O)c1cnc2ccccc2n1)c1ccccc1Cl (stereo not drawn) | . | . | 12 | . | 91
O=C(Nc1ccccc1C(F)(F)F)c1ccc2nccnc2c1 | . | . | 4.2 | . | 2
O=C(Cn1cnc2c(oc3ccccc32)c1=O)N1CCCC1 | 3 | . | 1.1 | -1% | -1
COc1cccc(N2CC(C(=O)Nc3nnc(SCC(=O)NCc4ccco4)s3)CC2=O)c1 (stereo not drawn) | . | . | 3.9 | . | 6
Cc1ccc(Cl)cc1NC(=O)CCNC(=O)N1CC(=O)Nc2ccccc21 | . | . | 0.2 | . | 4
Cc1csc(Nc2ccccc2)[n+]1-c1ccccc1 | 18 | . | 2.7 | 5% | -8
COc1ccc(N2CCN(C(=O)CCc3nnc4ccc(N5CCOCC5)nn34)CC2)cc1 | . | . | -7.1 | . | 0

5 compounds out of the list, arranged by length of the SMILES, rising.
SMILES | Arbovirus inh | YopH inh | RecA splice inh | Mtb H37Rv | Mtb bLac sens | others
Cc1csc(Nc2ccccc2)[n+]1-c1ccccc1 | 18 | . | 2.7 | 5% | -8
CC(OC(=O)c1cnc2ccccc2n1)c1ccccc1Cl (stereo not drawn) | . | . | 12 | . | 91
Cn1c(=O)n(C)c(=O)n(CC(=O)N2CCCCC2)c1=O | -1 | -53 | 1.7 | -10% | 2
Cc1ccc2cc(C#N)c(N3CCCN(C(=O)C4CCCO4)CC3)nc2c1 (stereo not drawn) | 6 | -34 | -41 | -5% | 10
COc1ccc(N2CCN(C(=O)CCc3nnc4ccc(N5CCOCC5)nn34)CC2)cc1 | . | . | -7.1 | . | 0

Later entries:
SMILES | Arbovirus inh | YopH inh | RecA splice inh | Mtb H37Rv | Mtb bLac sens | others
Cc1ccc(/C=C/C(=O)O)cc1S(=O)(=O)NC1CCS(=O)(=O)C1 (stereo not drawn) | 5 | . | -1.4 | -3% | -5
Fc1ccc(CNc2cnccn2)cc1 | -2 | -19 | 0.3 | 0% | -3
O=C(NCc1ccncc1)NC12CC3CC(CC(C3)C1)C2 | 1 | . | 0.9 | -5% | 1
CCOc1cc(N2CCOCC2)c(OCC)cc1NC(=O)CSc1ncccn1 | 0 | . | -1.8 | 4% | 4
Cc1cc(NC(=O)CSc2nnnn2-c2ccc(F)cc2)no1 | . | . | -0.6 | . | -11
Cc1nc2ccccc2c(=O)n1NC(=O)/C=C/c1ccccc1 | 6 | -5 | 2.6 | -1% | 3
Cc1ccc(S(=O)(=O)/C(C#N)=C/c2c(N3CC(C)OC(C)C3)nc3c(C)cccn3c2=O)cc1 (stereo not drawn) | 2 | 2 | 1.0 | 2% | -4
CN1c2ccc([N+](=O)[O-])cc2CC2(C(=O)NC(=O)N(c3ccc(Br)cc3)C2=O)C1c1ccccc1 (stereo not drawn) | 17 | -26 | 1.8 | 0.96µM* | 74
NC1=NC(=O)C(Cc2ccc(Br)cc2)S1 (stereo not drawn) | . | . | 1.8 | . | -11
O=C(NCCCN1CCN(c2ccccc2)CC1)Nc1ccccc1C(F)(F)F | 5 | -28 | 12 | 9% | -2
CC(=O)c1cccc(NC(=O)c2ccc(C)o2)c1 | 11 | . | 0.6 | -3% | 1
CCc1cc2c(=O)c(-c3nc(C)cs3)coc2cc1OC(C)C(=O)NCCO (stereo not drawn) | 5 | -21 | 0.0 | 4% | 7
Cc1ccc(NC(=O)C2C3C=CC(O3)C2C(=O)O)cc1C (stereo not drawn) | . | . | -3.2 | . | -5
CC(=O)c1ccc(NC(=O)CSc2nc(=O)cc(N)n2-c2ccccc2)cc1 | 1 | . | 11 | -1% | 2
CS(=O)(=O)N(CC(=O)Nc1ccccc1C(=O)N1CCCC1)c1ccccc1Br | . | . | -0.4 | . | 5
Cc1cc(NC(=O)c2ccccc2O)nc(C)n1 | 0 | . | 2.4 | 9% | -2
CC(C)NC(=O)CN1C(=O)c2cccc3cccc1c23 | . | . | -21 | . | -6
CCC(C)N1C(=O)C2C(C(=O)Nc3cccc(OC)c3)C3C=CC2(O3)C1C(=O)NC1CCCCC1C (stereo not drawn) | 3 | -4 | . | -13% | -6
CC1=NN(C(=O)c2ccccc2Br)C(O)(c2ccc(Cl)cc2)C1 (stereo not drawn) | . | . | 0.1 | . | 8
Cc1cc(=O)oc2c1c(C(F)(F)F)nn2-c1ccccc1 | . | . | -1.1 | -4% | 6
CN(C(=O)COC(=O)c1ccccc1SCC(=O)NC1CCCCCCC1)C1CCS(=O)(=O)C1 (stereo not drawn) | 10 | -31 | -1.8 | -6% | -1
CC(=O)N1CCCc2cc(S(=O)(=O)NC(C(=O)NC(C)c3ccccc3)C(C)C)ccc21 (stereo not drawn) | 2 | -37 | 2.4 | 0% | ?
COc1ccccc1NC(=O)CSc1nc2n[nH]c(C)c2c(=N)n1-c1ccccc1Cl | -10 | -31 | 1.4 | 28% | 7
CCCN1CNc2c(c(=O)[nH]c(=S)n2-c2ccc(Cl)cc2)C1 | 6 | . | -2.8 | -10% | -13
CC1(C)[C@H]2CC[C@]1(C)[C@@H](OC(=O)C[N+]1(C)CCOCC1)C2 | . | . | -5.9 | -7% | -5
NNC(=O)Cn1c(-c2ccccc2)cc(=O)n2ncnc12 | . | . | -2.7 | -12% | 3
O=C(Oc1ccc(-c2nc(-c3ccccn3)no2)cc1)c1ccccc1 | -9 | 3 | 0.2 | 48% | 66
c1ccc2[nH]c(Cn3nnc4ccccc43)nc2c1 | . | . | -2.4 | . | 4
CC(C)CN(C(=O)COC(=O)c1ccccc1SCC(=O)NC1CCCCCC1)C1CCS(=O)(=O)C1 (stereo not drawn) | -1 | -24 | -0.1 | -3% | -2
O=C(O)c1ccc(NC(=S)NC(=O)c2cccnc2)cc1 | . | . | -1.5 | . | -9
COc1ccc(C(CNC(=O)Cc2cccs2)N(C)C)cc1 (stereo not drawn) | . | . | 1.2 | . | -3
Nc1nc(-c2cccs2)c(NC(=O)c2ccccc2)s1 | -36 | -9 | 1.8 | -9% | 7
O=C(/C=C/c1ccco1)NC(=S)Nc1ccc(O)c(-c2nc3ccccc3s2)c1 | -24 | 20 | -60 | 13% | 21
Cc1ccc2oc3c(c(=O)c2c1)C(c1cccc(Br)c1)N(Cc1ccco1)C3=O (stereo not drawn) | -2 | -17 | . | 2% | .
COc1ccccc1N1CCN(C(=O)Cc2ccc(Cl)cc2)CC1 | . | . | -3.0 | . | 0
CNC(=O)c1sccc1SCc1ccc(Cl)cc1Cl | 14 | -19 | 2.0 | 1% | -8
O=C(CSc1nc2ccccc2c(=O)n1CCCN1CCOCC1)N1CCN(c2ccccc2)CC1 | 2 | . | -0.4 | 7% | 0
CCOCCCN(C(=O)Cn1nnc(-c2ccc(C)o2)n1)C(C(=O)NC1CCCC1)c1ccco1 (stereo not drawn) | . | . | 2.3 | . | -2

Compound activity deposited in PubChem by several laboratories.
